UCH37 inh: inhibitors of human deubiquitinating enzyme UCH37 | Q9Y5K5 | inhibition, % (no concentration beside the values) | purified proteasome/UCH37, Ub-AMC cleavage fluorescence | hit rate 0.33% among 330,000;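 active = mean of two replicates above 20%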;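 also: 0% = compound-free wells with enzyme and 100% = wells lacking proteasome; stock transfer was 100 nL into about 20 µL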
Target sequence (Q9Y5K5 whole entry, looked up): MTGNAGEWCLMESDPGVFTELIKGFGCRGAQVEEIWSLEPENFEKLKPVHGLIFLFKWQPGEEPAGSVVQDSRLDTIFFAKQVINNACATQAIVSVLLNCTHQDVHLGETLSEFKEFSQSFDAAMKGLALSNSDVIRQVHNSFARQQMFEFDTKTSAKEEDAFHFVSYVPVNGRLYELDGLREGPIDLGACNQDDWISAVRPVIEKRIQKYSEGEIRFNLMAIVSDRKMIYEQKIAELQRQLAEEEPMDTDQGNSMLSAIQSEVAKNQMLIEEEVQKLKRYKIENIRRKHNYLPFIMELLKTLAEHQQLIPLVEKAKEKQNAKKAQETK
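Reagent: Ub-AMC substrate; assay system: Proteasome-associated human UCH37 deubiquitinase; controls: no-proteasome and no-compound wells; read-out: % inhibition of Ub-AMC cleavage fluorescence; timing: 30 min preincubation with enzyme, 25 min cleavage at room temperature; signal: AMC fluorescence from Ub-AMC cleavage, excitation 355 nm, emission 460 nm; buffer or medium: Tris-HCl pH 7.4 plus ovalbumin, ATP-MgCl2, DTT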
A1 inh: inhibitors of the anti-apoptotic protein A1, read as caspase activation; MEF A1-2A-BIM cells, Caspase-Glo 3/7 luminescence, 3 h; percent of clofoctol response, vehicle zero; caspase activation, % (test concentration not listed); hit rate 0.066% among 330,000;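 active = over half of replicate activation scores above 10%, or exactly half above 10 with the replicate mean above 10; inconclusive = replicate mean below 10 yet half the replicates above 10; inactive = over half of replicates below 10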;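 also: wells of about 30 µL received 50 nL stock; many hits fall short of the cut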
Beta2AR agonist: human beta-2 adrenergic receptor agonism by FAP. P07550. Am2.2-beta2AR cells, FAP receptor internalization, flow cytometry; reference of the scale not given here. response, % (test concentration not listed). hit rate 0.43% among 340,000. AID 504454;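 active = response above a set limit, near 3 SD of response in nonfluorescent compounds, cut at about 42% in these data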;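 also: stock transfer was 100 nL into about 11 µL; a reference agonist was the positive control; negative values mostly stem from fluorescent compounds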
Target sequence (P07550 whole entry, looked up): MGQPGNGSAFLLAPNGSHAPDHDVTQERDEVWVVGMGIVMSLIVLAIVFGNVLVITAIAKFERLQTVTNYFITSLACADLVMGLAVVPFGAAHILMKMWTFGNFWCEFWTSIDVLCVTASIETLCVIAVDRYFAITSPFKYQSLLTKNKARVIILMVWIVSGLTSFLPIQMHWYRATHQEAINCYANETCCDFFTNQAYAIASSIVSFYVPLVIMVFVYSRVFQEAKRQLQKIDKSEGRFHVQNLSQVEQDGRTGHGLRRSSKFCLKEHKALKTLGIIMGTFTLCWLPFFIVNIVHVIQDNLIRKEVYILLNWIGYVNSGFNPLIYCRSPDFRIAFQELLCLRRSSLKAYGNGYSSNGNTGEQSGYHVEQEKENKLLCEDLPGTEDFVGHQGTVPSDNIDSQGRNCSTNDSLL
RanGTP-Imp inh: inhibitors of RanGTP-importin-beta interaction, primary screen, biochemical, FRET, CFP-Ran, YFP-importin-beta, homogeneous. cell-free CFP-Ran/YFP-importin-beta FRET ratio. inhibition, % (no concentration beside the values). hit rate 1.1% among 300,000. AID 2216;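 active = most replicates above 15%; inconclusive = exactly half above 15%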;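 also: 0% = DMSO wells and 100% = Ran loaded with GDP instead of GTP; wells of about 40 µL received 100 nL stock; the first replicate is given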
LANA-H2B inh: blocks KSHV LANA binding to histone H2A/H2B | Q9QR71 | cell-free LANA-H2A/H2B peptide, fluorescence polarization | hit rate 0.6% among 320,000 | inhibition, % (concentration not given with the values) | AID 2629; in the data active = inhibition mostly above about 10%, no sharp cut-off; inactive = mostly below about 6.7%;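 also: stock transfer was 7.5 nL into about 10 µL; 0% = median of vehicle wells and 100% = median of positive control wells; one replicate is shown; the record names a cut of 25% in any replicate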
T cruzi inh: blocks replication of Trypanosoma cruzi | T. cruzi beta-gal in NIH3T3, luminescence, 90 h | inhibition, % (concentration not given with the values) | hit rate 1.4% among 300,000 | AID 1885;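 active = mean inhibition across valid replicates above about 55%, limit read from the data; inconclusive = mean below that limit but half or more replicates reach it; inactive = mean below it, under half of replicates reach it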;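 also: signal also drops with host cell toxicity which is not excluded here; 0% = plate median of DMSO wells and 100% = zero luminescence signal; higher percent means less beta-gal luminescence so fewer parasites; stock transfer was 50 nL into about 50 µL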
Beta apoptosis: blocks beta cell apoptosis; protection from apoptosis, % (test concentration not listed); hit rate 0.8% among 300,000; INS-1E cytokine-induced death, ATP luminescence, 48 h; percent of positive-control rescue, neutral wells zero;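 active = all replicates at 75% or more, or half of them and the mean; inconclusive = half reach 75% but not the mean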;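 also: 0% = cytokine-treated negative control wells and 100% = positive control rescue; higher means more ATP so stronger rescue from cytokine killing; wells of about 40 µL received 100 nL stock; the first replicate is given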
Calb FLC: C. albicans growth modulation with fluconazole; C. albicans CaCi-2 (fluconazole-resistant clinical isolate) + fluconazole, Alamar Blue growth, 48 h; growth inhibition, % (no concentration beside the values); hit rate 0.57% among 300,000; AID 1979;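 active = most replicates above 75%; inconclusive = exactly half above 75%; inactive = most below 75%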;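 also: all wells also contain fluconazole at 8 µg/ml as a sub-toxic cotreatment; 0% = median of DMSO wells and 100% = median of geldanamycin control wells; wells of about 8 µL received 7.5 nL stock; the first replicate is given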
Numbers without * were called inactive; i = inactive; u = inconclusive; x = not tested or not shown. Rows are unselected; about 4.3% have a hit in one of these screens.

SMILES	UCH37 inh	A1 inh	Beta2AR agonist	RanGTP-Imp inh	LANA-H2B inh	T cruzi inh	Beta apoptosis	Calb FLC
Cn1c(Cl)cnc1C(O)(c1ccccc1)c1ccccc1	4.6	0.3	-5	-1.3	-3.4	20	-2	16
CC(=O)c1c(C)[nH]c(C(=O)COC(=O)c2cc(S(=O)(=O)N(C)c3ccccc3)ccc2Cl)c1C	4.1	-0.6	23	2.9	1.8	16	0	22
N#Cc1c[nH]n2c(=O)c3c(nc12)CCC3	1.4	0.1	0	-3.4	0.5	-3	-1	0
CCOC(=O)c1sc2nc(C)nc(N3CCN(S(=O)(=O)c4ccccc4)CC3)c2c1C	-18	-1.1	1	x	6.0	x	5	x
O=C(O)CCC(=O)NNC(=O)c1ccc([N+](=O)[O-])cc1	3.2	0.8	4	u	0.5	-18	-1	-2
CCOC(=O)c1c(-c2ccccc2)csc1NC(=O)CSc1nnc(C)s1	0.5	1.1	-1	-2.0	6.1	8	-9	-3
COc1cc(C#N)c(NC(=O)CN2CCN(CCO)CC2)cc1OC	6.0	1.1	3	0.6	-1.4	-15	-4	-19
O=C(CC1CCC1)NC(c1ccccc1)c1ccccc1	3.2	0.4	-1	-2.3	-0.1	-3	-7	u
COc1ccc(/C=N/NC(=O)C(C)Sc2ccccn2)cc1[N+](=O)[O-] (stereo unspecified)	x	0.6	-22	-3.5	-0.1	-6	-2	8
O=C(NCCS(=O)(=O)NCc1ccc2c(c1)OCO2)c1ccccc1	x	-0.5	2	-2.6	1.5	0	-6	-10
COc1cc(/C=C2\NC(=S)N(C)C2=O)ccc1OCc1ccccc1F	2.1	0.6	0	1.8	5.7	-18	6	0
CC1=C(C(=O)OCc2ccccc2)C(c2ccc([N+](=O)[O-])cc2)NC(=O)N1CCCC(=O)O (stereo unspecified)	-0.1	-0.2	2	-3.9	2.8	-6	2	-5
CSc1cccc(NC(=O)c2[nH]c(C)c(C(C)=O)c2C)c1	4.0	-4.7	4	1.0	0.1	0	x	-4
CCOc1ccc(OCc2ccc(C(=O)NCc3ccncc3)o2)cc1	3.2	1.0	-1	3.1	2.6	-23	x	33
CN(C)S(=O)(=O)c1ccc(C(=O)Nc2nnc(SCc3cccc4ccccc34)s2)cc1	-132	0.0	-7	2.3	5.0	-12	x	-7
O=C(CCC(=O)N1CCN(c2ccc(Cl)c(Cl)c2)CC1)c1ccccc1	4.2	0.2	8	4.0	-5.8	-29	-1	-8
Cc1nc2ccccc2c(=O)n1-c1ccc(NS(=O)(=O)c2ccc(F)cc2)cc1	1.6	-0.5	16	-1.2	5.8	-6	x	11
O=C(O)c1cccc(-c2ccc(/C=N/NC(=O)C3COc4ccccc4O3)o2)c1 (stereo unspecified)	x	-2.3	0	x	-0.3	8	2	x
CCCOc1cccc(OCCSc2nc(C)cc(=O)[nH]2)c1	2.5	-2.0	0	0.8	-8.0	-24	-2	25
CCO[C@@H]1OC(C(=O)NCc2nc3ccccc3[nH]2)=C[C@H](C2CCCCC2)[C@H]1CCCO	1.5	-1.8	-2	-2.2	2.1	7	-1	21
COc1ccc(CC(=O)Nc2cccc(C(=O)NN3C(=O)c4ccccc4C3=O)c2C)cc1	-1.0	0.4	-6	6.7	-2.0	-2	-2	5
CCOC(=O)c1c(-c2ccc(C)cc2)csc1NC(=O)CCN1CC(C)OC(C)C1 (stereo unspecified)	6.2	-0.9	6	4.1	-0.7	13	4	5
O=C1c2ccccc2NC(c2ccc3c(c2)OCCO3)N1c1ccc2c(c1)OCCO2 (stereo unspecified)	-9.2	0.5	-6	8.7	3.4	11	2	-7
OCCN1CCN(CC(O)COCC2COc3ccccc3O2)CC1 (stereo unspecified)	4.2	-0.9	-4	-0.5	-4.0	1	3	13

One compound at a time, from the list above. Values in the order: UCH37 inh	A1 inh	Beta2AR agonist	RanGTP-Imp inh	LANA-H2B inh	T cruzi inh	Beta apoptosis	Calb FLC
CSc1cccc(NC(=O)c2[nH]c(C)c(C(C)=O)c2C)c1 is listed with 4.0	-4.7	4	1.0	0.1	0	x	-4
CCCOc1cccc(OCCSc2nc(C)cc(=O)[nH]2)c1 is listed with 2.5	-2.0	0	0.8	-8.0	-24	-2	25

New compounds follow.
SMILES	UCH37 inh	A1 inh	Beta2AR agonist	RanGTP-Imp inh	LANA-H2B inh	T cruzi inh	Beta apoptosis	Calb FLC
CCCCc1ccc(NC(=O)CSc2nc(=O)n(CCN(CC)CC)c3c2CCCC3)cc1	1.7	-0.3	43*	-2.6	2.3	43	25	47
CCN1CCN(C(c2ccccc2F)c2nnnn2Cc2ccc3c(c2)OCO3)CC1 (stereo unspecified)	2.9	-0.1	-4	-5.3	-11	-3	-5	3
Cc1ccc(C(O)(c2ccccc2)c2ccccc2C(C)N(C)C)c(C)c1 (stereo unspecified)	2.3	-0.7	20	-1.9	-0.4	22	-13	37
CC(=C/c1ccccc1)/C=N/Nc1nc(N2CCOCC2)nc(N2CCOCC2)n1	x	1.7	-3	3.0	3.2	-39	0	22
O=C(COc1ccc(Br)cc1)N1CCc2ccccc21	2.9	-5.1	-1	-0.2	1.7	23	-20	-1
O=C(Cn1c(=O)oc2ccccc21)Nc1ccc(Br)cc1	2.7	-0.2	-14	2.1	-5.3	-20	0	-22
CCc1cc(C(=O)NCC(C)(C)N2CCOCC2)sc1C	4.3	0.3	-5	7.1	-7.4	-8	1	-4
CCN(c1ccccc1)S(=O)(=O)c1ccc(C(=O)Nc2cccc(C)n2)cc1	-0.1	-0.6	-2	x	-1.0	x	-3	x
CC(C)NCC(O)COCc1ccc(Cl)cc1 (stereo unspecified)	4.3	0.0	-6	3.1	3.9	3	0	-2
Cc1ccc(C)c(NCc2n[nH]c(=S)n2-c2ccccc2)c1	0.6	1.7	-3	4.0	2.7	-2	-4	-3
FC(F)Sc1nc(-c2ccccc2)c(-c2ccccc2)n1C(F)F	-2.7	-0.7	-2	0.9	-9.9	14	-4	-4
COC(=O)Cc1[nH]n(-c2nc3ccccc3s2)c(=O)c1C(C)=Nc1ccc(C)cc1	-6.5	u	-6	5.3	1.6	-16	5	7

Structural class, those above with a nitro group on carbon.
SMILES	UCH37 inh	A1 inh	Beta2AR agonist	RanGTP-Imp inh	LANA-H2B inh	T cruzi inh	Beta apoptosis	Calb FLC
O=C(O)CCC(=O)NNC(=O)c1ccc([N+](=O)[O-])cc1	3.2	0.8	4	u	0.5	-18	-1	-2
COc1ccc(/C=N/NC(=O)C(C)Sc2ccccn2)cc1[N+](=O)[O-] (stereo unspecified)	x	0.6	-22	-3.5	-0.1	-6	-2	8
CC1=C(C(=O)OCc2ccccc2)C(c2ccc([N+](=O)[O-])cc2)NC(=O)N1CCCC(=O)O (stereo unspecified)	-0.1	-0.2	2	-3.9	2.8	-6	2	-5

(continued)
SMILES	UCH37 inh	A1 inh	Beta2AR agonist	RanGTP-Imp inh	LANA-H2B inh	T cruzi inh	Beta apoptosis	Calb FLC
Cc1cc(C)nc(N2CCN(CC(=O)NCc3ccccc3)CC2)n1	-1.4	1.0	-3	2.9	-0.3	17	-2	17
COc1ccc(C(=O)Nc2c(O)ccc3ccccc23)cc1OC	5.6	0.3	2	1.4	-4.4	-22	1	-3
O=C(C1CCCN(c2nnc(-n3cccc3)s2)C1)N1CCN(c2ccccc2)CC1 (stereo unspecified)	5.9	0.7	-3	u	-4.0	4	x	-7
CC(C)(C)c1ccc(OC(=O)Cn2c(C(F)(F)F)nc3ccccc32)cc1	2.2	-0.8	-2	4.4	1.7	-23	-1	11
COCC(C)OC(=O)c1c(N)n(CCCN2CCOCC2)c2nc3ccccc3nc12 (stereo unspecified)	i	0.4	-18	u	1.7	7	-4	-3
CCNS(=O)(=O)c1ccc(NC(=S)NCc2ccco2)cc1	2.9	-0.2	2	-3.2	-3.6	5	-1	-16
CCOC(=O)C1CCN(Cc2nnc(-c3ccccc3C)o2)CC1	3.5	-1.0	-2	-0.2	-2.9	-6	-2	-34
Nn1c(SCC(=O)Nc2ccccc2)nnc1-c1cccnc1	3.8	1.0	-3	-0.5	-0.3	-13	-1	6
CCCN1CCN(C(c2cc3cc4c(cc3[nH]c2=O)OCO4)c2nnnn2C(C)(C)C)CC1 (stereo unspecified)	-203	0.7	3	-4.1	0.5	-18	-7	-9
O=C(CN1C2=NCCCN2c2ccccc21)c1cccc(Br)c1	2.6	-0.2	-8	1.1	2.8	14	1	4
OCC1(c2cc(C(F)(F)F)n[nH]2)CCCCC1	-2.0	-0.6	4	u	-3.2	-7	-1	-11
CCOc1ccc2[nH]c(SCC(=O)OC)c([N+](=O)[O-])c2c1	7.0	1.4	-4	-56	5.5	-9	-17	-5
CCOC(=O)CNC(=O)Cn1cnc2c(nnn2-c2ccccc2)c1=O	-0.9	0.1	1	1.4	0.3	-10	0	0
CCc1ccc(NC(=O)N(CCN2CCOCC2)Cc2ccc3c(c2)CCCN3CC)cc1	3.7	0.6	11	-1.2	-1.0	25	2	u
CC(CN1CCOCC1)OC(=O)c1ccc(Cl)cc1Cl (stereo unspecified)	5.7	0.3	-3	2.0	-1.8	-7	x	2
COc1cc2c(cc1OC)-c1cc(Nc3ccccc3C)nc(=O)n1CC2	1.6	0.0	12	0.4	-0.6	-6	22	-7
CCCOc1ccc(CC(=O)N/N=C\c2ccc(F)cc2)cc1	x	1.7	-4	2.2	-0.9	-20	0	1
O=c1cc(N2CCc3ccccc3C2)[nH]c(=O)n1-c1ccc(Br)cc1	12	0.4	-3	124*	3.3	-7	3	-4
O=C(Nc1ccc(F)cc1)C1CCC(N2C(=O)c3ccccc3C2=O)CC1 (stereo unspecified)	2.8	-0.3	-8	5.5	3.6	-10	3	10
O=C(COC(=O)CCC(=O)c1ccc(F)cc1)NC1CCCCC1	1.2	0.1	-2	x	2.8	x	3	x
Brc1ccc(CN2CCCCCC2)cc1	6.2	0.2	-3	1.0	1.4	23	0	-7
COCC(C)n1c(C)cc(C(=O)CSc2nnnn2-c2ccc(O)cc2)c1C (stereo unspecified)	5.8	-0.1	2	-3.3	-2.0	2	-5	-15
CCOC(=O)C1=C(C)SC2=NS(=O)(=O)CCN21	3.4	0.5	-13	-6.1	-0.4	-11	x	-8

Arranged by heavy-atom count (lowest first): 4 of the compounds above
SMILES	UCH37 inh	A1 inh	Beta2AR agonist	RanGTP-Imp inh	LANA-H2B inh	T cruzi inh	Beta apoptosis	Calb FLC
Brc1ccc(CN2CCCCCC2)cc1	6.2	0.2	-3	1.0	1.4	23	0	-7
CCCOc1ccc(CC(=O)N/N=C\c2ccc(F)cc2)cc1	x	1.7	-4	2.2	-0.9	-20	0	1
O=c1cc(N2CCc3ccccc3C2)[nH]c(=O)n1-c1ccc(Br)cc1	12	0.4	-3	124*	3.3	-7	3	-4
COc1cc2c(cc1OC)-c1cc(Nc3ccccc3C)nc(=O)n1CC2	1.6	0.0	12	0.4	-0.6	-6	22	-7

Assay outcomes deposited in PubChem BioAssay by several laboratories.
